# Cruzain Triton: inhibitors of Trypanosoma cruzi cruzain with detergent | AID 1478 | Potency, µM, for the others: max response, negative = inhibition, usual class: inhibitors | 200,000 tested, 0.43% active | P25779 | purified cruzain, Z-FR-AMC fluorescence, 0.01% Triton;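 note: plate controls were neutral wells for no effect and buffer without enzyme for full effect; nearly all actives have a fitted effect of over 40% in size; top concentration of the series not given in the record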
# Target sequence (P25779 123-467 limits assumed): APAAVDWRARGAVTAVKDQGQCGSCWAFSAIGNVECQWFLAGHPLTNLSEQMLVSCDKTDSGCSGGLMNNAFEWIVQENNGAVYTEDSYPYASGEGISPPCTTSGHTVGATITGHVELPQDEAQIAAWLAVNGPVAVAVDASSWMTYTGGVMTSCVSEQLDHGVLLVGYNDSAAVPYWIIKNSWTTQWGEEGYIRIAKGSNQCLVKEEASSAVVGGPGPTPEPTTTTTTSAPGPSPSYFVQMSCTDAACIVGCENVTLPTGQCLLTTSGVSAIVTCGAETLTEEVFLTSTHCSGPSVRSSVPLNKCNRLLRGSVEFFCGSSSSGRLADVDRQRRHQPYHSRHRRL
#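 15 min RT preincubation of 1.5 nM cruzain with compound, then 2 uM Z-FR-AMC added; kinetic AMC fluorescence, 60 s delta. Triton X-100 0.01%, pH 5.5.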
# LASV entry inh: Lassa virus entry inhibition; Lassa virus pseudotype entry inhibition, cell reporter; control for the full effect not named in the record; AID 540256; Potency, µM (highest dose often 37.9 µM), for inactives: at the top dose activity change, negative = inhibition, usual class: inhibitors; 300,000 tested, 1.2% active; active means well fitted inhibition curve with a large enough effect; inconclusive means small, poorly fitted or top-dose-only effect, or effect the other way; inactive means flat fitted curve, though single readings scatter; tested in HEK293 cells; note: % is set by controls: 0 for no effect and ±100 for the full control effect; nearly all actives have a fitted effect of over 50% in size; luciferase read-out
# NS1 inh: blocks influenza NS1 protein function. S. cerevisiae slowed by influenza A NS1, growth recovery by OD600. Potency, µM (doses to about 46.1 µM), for inactives: at the highest dose activity, positive = more growth. 270,000 tested, 0.4% active; active means well fitted rising curve with a large enough effect; inconclusive means small, poorly fitted or top-dose-only effect; inactive means no such curve, though single readings can be large or run the other way; note: nearly all actives have a fitted effect of over 50% in size
#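 Growth recovery, yeast-based: influenza A NS1 expressed in S. cerevisiae causes slow growth, and suppressors are detected by OD600. The parent strain without NS1 is used as positive control.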
# Cruzain inh noDet: inhibitors of Trypanosoma cruzi cruzain without detergent. P25779. purified cruzain, Z-FR-AMC fluorescence, no detergent. Potency, µM, for inactives: max response, negative = inhibition, actives largely listed as inhibitors. 200,000 tested, 2.3% active. AID 1476;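 note: plate controls were enzyme without inhibitor for no effect and buffer without enzyme for full effect; nearly all actives have a fitted effect of over 40% in size; top concentration of the series not given in the record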
#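 Purified cruzain at 1.5 nM, pre-incubated 15 min with compound at room temperature in 100 mM sodium acetate pH 5.5, 5 mM DTT, 0.00005% Triton X-100. Reaction started with 2 uM Z-FR-AMC; AMC fluorescence increase over 60 s gives rate.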
# RE007 growth inh: less growth of the S. pombe RE007 Vpr strain; S. pombe RE007 Vpr strain, BacTiter-Glo ATP luminescence, 24 h; control for the full effect not named in the record; Potency, µM (highest dose often 92.2 µM), inactives show at the highest dose activity change, negative = less growth; 360,000 tested, 0.21% active; active = well fitted falling curve with a large enough effect; inconclusive = small, poorly fitted or top-dose-only effect; inactive = no such curve, though single readings can be large or run the other way;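 note: % is set by controls: 0 for no effect and ±100 for the full control effect; nearly all actives have a fitted effect of over 50% in size; the assay follows cell death caused by Vpr and the record does not say whether a fall means rescue or toxicity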
#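 Fission yeast strain RE007, carrying one chromosomally integrated HIV-1 vpr copy, was seeded at OD 0.01 in PMG+AL medium with 23 nL pinned compound. After 24 h at 30 °C and 99% humidity, viability was read by BacTiter-Glo luminescence.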
# SARS PLP yeast: SARS-CoV PLP inhibition in yeast; 330,000 tested, 0.19% active; S. cerevisiae expressing SARS-CoV PLpro, growth rescue; control for the full effect not named in the record; Potency, µM (series often up to 32.9 µM), without a hit: at the top dose activity, positive = growth rescue; AID 485353; active means well fitted rising curve with a large enough effect; inconclusive means small, poorly fitted or top-dose-only effect; inactive means no such curve, though single readings can be large or run the other way; note: 0% is about no effect; nearly all actives have a fitted effect of over 55% in size; growth read by luminescence after 48 h
# Marburg entry inh: inhibitors of Marburg virus binding or cell entry; Marburg virus pseudotyped entry inhibition, cell reporter; control for the full effect not named in the record; about a third of the inactives were read at about 46 µM; Potency, µM (doses to about 37.8 µM), for inactives: at the top dose activity change, negative = inhibition, hits mostly inhibitors; 300,000 tested, 1.8% active; AID 540276; active = well fitted inhibition curve with a large enough effect; inconclusive = small, poorly fitted or top-dose-only effect, or effect the other way; inactive = flat fitted curve, though single readings scatter; tested in HEK293 cells; about a fifth of its hits are not listed in these tables; note: % is set by controls: 0 for no effect and ±100 for the full control effect; luciferase read-out
# StopGo reporter: lowers the luciferase signal of an FMDV 2A StopGo reporter | human cells with a luciferase reporter of 2A StopGo recoding; control for the full effect not named in the record | Potency, µM (titrated, usually from 57.9 µM), for the others: top-dose signal change, negative = less light | 410,000 tested, 1.2% active; active = well fitted falling curve with a large enough effect; inconclusive = small, poorly fitted or top-dose-only effect; inactive = no such curve, though single readings can be large or run the other way; tested in HEK293T cells; note: % is set by controls: 0 for no effect and ±100 for the full control effect; nearly all actives have a fitted effect of over 45% in size; luciferase light after 4 h
# Numbers without * were called inactive; u = inconclusive; x = not tested or not shown; & = joins results of further samples; [ ] = another dose, or the depositor's remark. Unless noted, calls come from the whole dose curve; as a rule, active = well fitted curve in the direction sought with a large enough effect; inconclusive = small, poorly fitted or top-dose-only effect, or another doubt; inactive = no such curve, though single readings can be large; an effect the other way counts as inactive or inconclusive. Potency is the fitted concentration of half-maximal effect.
SMILES,Cruzain Triton,LASV entry inh,NS1 inh,Cruzain inh noDet,RE007 growth inh,SARS PLP yeast,Marburg entry inh,StopGo reporter
N#Cc1ccccc1NC(=O)c1ccccc1OCC(=O)NCc1ccco1,-2.4%,43.9%[14.3 µM],0.3%,-23.2%,16.1%,-0.4%,-27.6%,-7.1%
CCOc1ccc(CCNC(=O)c2cccc(NC3=NC4CS(=O)(=O)CC4S3)c2)cc1 (stereo not drawn),x,x,6.5%,x,-13.3%,2.6%,x,-7.9%
COc1cc(-c2nc(-c3cccc(C(F)(F)F)c3)no2)cc(OC)c1OC,-0.4%,-18.1%,-2.4%,u,18.7%,8.0%,u,u
Cn1cnnc1SCC(=O)NCCc1ccccc1,-0.2%,5.7%,-0.2%,-0.1%,8.6%,-6.1%,u,13.5%
Cc1cc(C(=O)N/N=C\c2cc(C(C)(C)C)ccc2O)n[nH]1,x,x,-30.2%,x,7.8%,u,x,-15.7%
Cc1ccc(-n2ncc(C(=O)NCc3ccco3)c2C2CCN(C(=O)OC(C)(C)C)CC2)c(C)c1,-8.4%,u,x,u,x,x,x,-20.4%
CC(C)CC(=O)Nc1ccc(C(=O)Cn2nc(C(=O)O)c3ccccc3c2=O)cc1,-0.4%,7.5%,-0.6%,0.9%,2.8%,12.6µM*,0.1%,0.0%
CC(=O)c1ccc(NC(=O)Cn2c(=O)oc3cc(S(=O)(=O)N4CCCCC4)ccc32)cc1,-1.1%,x,x,0.8%,x,x,29.9%[46.1 µM],3.4%
COc1cc(S(=O)(=O)NCc2ccc3c(c2)OCO3)ccc1Cl,-0.3%,12.8%,3.6%,-0.1%,9.9%,0.6%,-6.4%,x
CC(C)(C)n1ncc2c(=O)n(CC(=O)Nc3ccc4c(c3)OCO4)cnc21,7.6%,3.6%,-2.4%,-1.6%,14.8%,-5.9%,13.0%,-21.0%
CC(=O)Oc1c(S(=O)(=O)c2ccccc2)c(C)nn1C(C)(C)C,-0.3%,u,-42.7%,0.9%,0.5%,x,-5.6%,10.2%
CCNC(=O)c1c(C)nc2ccccn12,-0.9%,20.4%,-1.0%,4.0%,-14.4%,-4.0%,-4.0%,-22.9%
Cc1cccc(C)c1NC(=O)NC1(C(=O)N2CCN3CCCC3C2)CCCCC1 (stereo not drawn),x,-22.4%[46.1 µM],-7.5%,x,3.1%,-0.6%,-3.5%[46.1 µM],3.7%
COc1ccc(-c2cc(C)no2)cc1S(=O)(=O)N1CCOc2ccc(Cl)cc21,3.3%,7.6%[46.1 µM],14.8%,2.4%,2.5%,1.7%,x,12.8%&2.9%
Cn1c(N)c(C(=O)COC(=O)CSc2ccccc2)c(=O)n(C)c1=O,-5.7%,u,6.0%,4.3%,-11.2%,-18.4%,4.8%,25.3%
Cc1ccc2oc(NC(=O)N3CCOCC3)cc(=O)c2c1,-5.4%,u,-8.1%,-6.5%,0.2%,-2.8%,u,38.7%[activator]
CN1C(=O)NC(=O)C(C)(C2=CCCCC2)C1=O (stereo not drawn),1.2%,x,x,-3.4%,-13.2%,x,x,39.5%[activator]
CCCSc1nc(N)nc(-c2cccs2)c1C#N,-10.5%,10.2%,-143.3%,-18.7%,u,-29.0%,8.4%[46.1 µM],6.4%
CCOC(=O)C1CCN(Cc2cnc(Oc3ccc(Cl)cc3C)s2)CC1,-2.7%,1.4%,-24.9%,1.3%,-1.0%,2.7%,2.8%,-18.4%
CC(=O)c1ccc(NC(=O)CC2Nc3cc(C)c(C)cc3NC2=O)cc1 (stereo not drawn),-1.5%,14.3%[46.1 µM],x,5.9%,x,x,u,-14.3%
CCN(CC)CCCNc1cc2n(c(=O)n1)CCc1cc(OC)c(OC)cc1-2,-10.4%,12.2%,10.1%,1.4%,-13.1%,-1.0%,4.5%,-7.4%
O=C(Nc1c(C(=O)O)[nH]c2ccccc12)c1cccc(C(F)(F)F)c1,x,-1.5%,-2.8%,x,-1.7%,2.3%,2.0%[46.1 µM],-3.2%
Cc1cc(C)nc(N/N=C/c2ccc(Cl)cc2)n1,x,x,11.6%,x,-17.3%,0.1%,x,21.7%
O=C(CN1C(=O)C2CC=CCC2C1=O)Nc1nnc(SCc2ccc(F)cc2)s1 (stereo not drawn),-5.4%,8.7%,9.0%,4.2%,4.7%,9.1%,12.1%,-4.1%
COc1ccc(NS(=O)(=O)c2ccc(C)c(C(=O)N(C)CC(=O)Nc3cccc(OC)c3)c2)cc1,x,u,x,x,36.0%,-12.0%,15.2%,20.2%
COc1ccc(/C=C2/C(=O)N(Cc3ccccc3)N=C2C)cc1,0.0%,8.5%,1.2%,1.1%,-9.9%,4.5%,-2.3%,-24.0%
COc1ccc(Cl)c2sc(N(CCN(C)C)C(=O)c3ccc4c(c3)OCCO4)nc12,x,u,x,x,8.2%,-2.9%,u,-20.9%
CN(CC(=O)NCCc1ccc(S(N)(=O)=O)cc1)CC(=O)Nc1ccc(F)c(F)c1F,x,-1.4%[46.1 µM],x,x,-1.2%,-8.6%,-0.9%[46.1 µM],-6.6%
CSc1nc(C(=O)N2CCCC(C(=O)c3ccc(Cl)cc3)C2)cs1 (stereo not drawn),x,x,-3.5%,x,-1.8%,-1.6%,x,-8.6%
CCOC(=O)c1c(NC(=O)c2ccc(Br)o2)sc2c1CCCC2,-5.5%,-13.6%,11.5%,-20.9%,6.3%,3.4%,u,10.9%

# A few values from the list.
# Value for O=C(CN1C(=O)C2CC=CCC2C1=O)Nc1nnc(SCc2ccc(F)cc2)s1 (stereo not drawn) under Marburg entry inh: 12.1%
# Value for Cc1cc(C)nc(N/N=C/c2ccc(Cl)cc2)n1 under NS1 inh: 11.6%

# Other structures follow.
SMILES,Cruzain Triton,LASV entry inh,NS1 inh,Cruzain inh noDet,RE007 growth inh,SARS PLP yeast,Marburg entry inh,StopGo reporter
c1ccc2c(c1)ccc1nnc(SCc3ccc4c(c3)OCO4)n12,-1.2%,x,-62.2%,2.6%,3.3%,-7.6%,x,48.4%[activator]
O=[N+]([O-])c1ccc(Oc2ncccn2)cc1,x,24.0%,x,x,18.2%,x,-1.5%[46.1 µM],7.6%
CCCN1C(=O)/C(=C/c2ccc(OCC(=O)OCC)cc2)NC1=S,x,3.3%[46.1 µM],x,x,37.3%,-5.6%,-3.0%[46.1 µM],17.0%
CNC(=O)C(NC(=O)c1ccccc1)=C(C)C,x,10.0%[46.1 µM],-0.9%,x,5.6%,0.7%,3.2%[46.1 µM],-10.9%
CC(=O)c1cnc2nc(SCc3ccc(C)cc3)nn2c1C,x,u,-8.3%,x,0.6%,-2.0%,u,3.3%
O=C(Nc1ccc(Cl)cc1)N1CC1,x,0.0%[46.1 µM],x,x,-5.5%,x,u,-6.4%
N#Cc1cc(C(=O)c2cc(Br)ccc2O)cn(Cc2ccccc2)c1=O,x,u,x,x,-7.1%,0.0%,u,-29.9%
COCCN(CCOC)c1nc(N)c2c(N)nc3c(c2c1C#N)CC(=O)N3Cc1ccc(Cl)cc1,-2.0%,3.7%,13.1%,u,-2.5%,5.8%,-27.8%,-20.4%
CCn1c2c(c(=N)c3c1CCC3)CCC2,-1.5%,2.0%,16.6%,-2.3%,36.8%,-10.6%,u,-18.5%
Cc1ccc(CN2CCC(CNC(=O)C3CCCN(c4ncnc5c4nc4n5CCCCC4)C3)CC2)cc1 (stereo not drawn),x,-14.2%[46.1 µM],-2.7%,x,-5.8%,-4.6%,u,-24.1%
O=C(NC(Nc1ncccn1)C(=O)c1ccccc1)c1ccccc1 (stereo not drawn),-2.9%,-11.5%,0.7%,-6.7%,11.4%,4.0%,u,u
COc1ccc(/C=C(/NC(=O)c2ccc([N+](=O)[O-])cc2)C(=O)NC(C)(C)C)cc1,x,8.8%,x,x,7.0%,-1.5%,1.0%[46.1 µM],-4.4%
CCOC(=O)/C=c1\s/c(=C\c2ccc(C(=O)OC)cc2)c(=O)n1CC(=O)Nc1ccccc1,x,-18.6%,-2.8%,x,0.6%,1.4%,u,31.9%[activator]
Cc1ccc(-c2csc(NC(=O)CSc3nc4ccccc4c(=O)n3CCCN(C)C)n2)cc1,x,u,x,x,5.6%,-0.5%,u,1.8%
CC(C)Nc1ccc(Nc2ccccc2)cc1,-2.9%,u,x,31.6µM*,u,0.3%,2.2%&2.2%,25.0%
COc1ccc(N2CCN(S(=O)(=O)CCNC(=O)c3cccs3)CC2)cc1,x,8.8%,x,x,19.1%,x,9.2%,u
Cc1[nH]n(CCC#N)c(=O)c1CC(=O)N1CCN(c2ccccc2)CC1,-0.4%,2.4%,-1.1%,u,5.1%,-1.5%,-4.0%,-11.4%
C/C(CC(=O)NCc1ccc(Cl)cc1)=N\NC(=O)COc1ccc(C)cc1Br,x,u,4.5%,x,-3.7%,-1.7%,u,71.4%[activator]
CCOC(=O)c1c(-c2ccc3ccccc3c2)csc1NC(=O)CCCC(=O)O,x,-8.3%,x,x,27.7%,-0.8%,-2.7%,-7.9%
CCC(=O)Nc1ccc(C(=O)CSc2nnc(-c3cccnc3)o2)cc1,-3.2%,-0.9%,-4.4%,-8.3%,-10.6%,3.9%,-0.2%[46.1 µM],-0.9%
COC(OC)C12c3ccccc3C(c3ccccc31)C1C(=O)N(c3cccnc3)C(=O)C12 (stereo not drawn),x,-19.4%,-5.2%,x,-13.4%,0.4%,u,u
COc1cccc(C(=O)O/N=C(\N)c2ccncc2)c1OC,4.9%,u,0.0%,u,-12.5%,5.4%,u,20.1%
O=C(NCCc1csc(-c2cccnc2)n1)c1cccs1,-1.5%,x,-34.1%,-1.2%,-0.1%,-15.7%,x,u
Cc1ccc(C)c(C(=O)CN2C(=O)NC3(CCCCCC3)C2=O)c1,x,8.8%,x,x,-11.7%,0.2%,14.6%,25.0%
C#CCOCCOCCOCCNc1nc(N2CCOCC2)nc(N2CCN(C(=O)[C@H]([C@@H](C)CC)n3cc([C@@H](N)CO)nn3)CC2)n1,x,x,3.7%,x,-1.1%,0.4%,x,-20.5%
COc1ccc(C(=O)NC2=NCCS2)c(OC)c1,x,u,-16.3%,x,-20.1%,-3.4%,u,7.9%

# Bioassay records: PubChem, National Center for Advancing Translational Sciences (NCATS)
